Assay outcomes: PubChem, National Center for Advancing Translational Sciences (NCATS)
gsp antagonist: antagonizes gsp, the McCune-Albright syndrome mutation; Potency, µM (series often up to 76.9 µM), for inactives: at the top dose activity change, negative = inhibition, usual class: inhibitors; 340,000 compounds, 0.4% hits; gsp-mutant cells, cAMP HTRF, 30 min; control for the full effect not named in the record; active = falling curve of any shape with a large fitted effect; inconclusive = falling curve, mostly with a smaller effect; inactive = flat or rising curve; cell line not stated here;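 also: intracellular cAMP measured with PDE inhibitor Ro 20-1724 present during compound exposure; potency is read from the fitted curve at half-maximal effect; % is scaled to controls: 0 for no effect and ±100 for the full control effect; nearly all actives have a fitted effect of over 65% in size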
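HTRF cAMP measurement after 30 min RT detection following 30 min, 37C compound treatment alongside […] (added as 300 uM solution) in G418-selected cells seeded at 2000/well and grown 16–24 h.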
TRPML1 inh: human mucolipin-1 channel inhibition. Q9GZU1. TRPML1-inducible cells, Ca2+ dye fluorescence, FDSS; hits give low values; inhibition of EC80 agonist-evoked calcium signal. activity change, negative = inhibition, % (no concentration beside the values). 390,000 compounds, 0.02% hits. AID 624415; in the data active means activity change below about -50%; inconclusive means about -30% to -50%; inactive means above about -30%;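 also: stimulus is agonist 54-4 at its EC80 concentration; % is scaled to controls: 0 for no effect and ±100 for the full control effect; compound concentration not given in the record; the text of the record puts the active cut at -80%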
Target sequence (Q9GZU1 whole entry, looked up): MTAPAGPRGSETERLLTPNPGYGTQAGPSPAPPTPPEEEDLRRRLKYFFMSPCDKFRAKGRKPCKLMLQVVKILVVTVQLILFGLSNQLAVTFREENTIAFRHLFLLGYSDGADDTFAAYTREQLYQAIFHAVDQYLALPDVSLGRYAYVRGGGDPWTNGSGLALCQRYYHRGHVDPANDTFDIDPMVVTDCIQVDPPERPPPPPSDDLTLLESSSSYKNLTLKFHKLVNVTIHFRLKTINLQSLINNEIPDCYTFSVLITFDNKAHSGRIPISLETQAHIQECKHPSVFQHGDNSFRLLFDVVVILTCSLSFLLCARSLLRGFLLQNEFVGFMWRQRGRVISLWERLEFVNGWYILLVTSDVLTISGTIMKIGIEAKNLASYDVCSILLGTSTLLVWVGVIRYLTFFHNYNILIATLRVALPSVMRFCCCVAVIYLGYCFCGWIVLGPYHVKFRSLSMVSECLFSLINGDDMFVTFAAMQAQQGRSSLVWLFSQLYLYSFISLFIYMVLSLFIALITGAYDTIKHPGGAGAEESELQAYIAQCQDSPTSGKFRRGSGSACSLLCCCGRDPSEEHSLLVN
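Calcium fluorescence in TRPML1-DL cells induced overnight with Tet: a 110 s read after compound pin addition, then a 110 s antagonist read after challenge with 54-4 at 4 uM final (EC80).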
Menin MLL FP FL: inhibitors of human menin-MLL interaction, wild-type MLL peptide; Fluorescence polarization, fluorescein-MLL peptide displacement from menin; FP activity change, % at 61.4 µM; 290,000 tested, under 10 active; AID 1766; inconclusive = falling polarisation curve, or a change in total fluorescence; inactive = total fluorescence flat and polarisation flat or rising; no compound was filed as active; the % refers to the polarisation; negative = inhibition;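 also: % of control where 0% means no effect; inhibitors lower the polarisation; unlabelled MLL peptide was the positive control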
TRPML1 agonist: activates the human TRPML1 channel; TRPML1-expressing cells, Ca2+ dye fluorescence, FDSS; host cell line not named in the record; reference of the full effect not given here; activation, % (test concentration not listed); 410,000 compounds, 0.12% hits; AID 624414; in the data active = activation above about 50%; inconclusive = about 30% to 50%; inactive = below about 30%; also: 0% is about no effect; the text of the record puts the active cut at 80%
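TRPML1-DL cells, Tet-induced overnight (~16 h, 37 degrees C), loaded 45-90 min at room temperature with Ca8 no-wash calcium dye plus quencher. FDSS fluorescence: 10 s baseline, compound pin-transfer, 110 s agonist read, then EC80 54-4 (4uM final) and 110 s antagonist read.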
ClpP mod: qHTS Assay for Activators of ClpP. ATP-dependent Clp protease proteolytic subunit (Bacillus subtilis (strain 168)), P80244. purified B. subtilis ClpP, FRET peptide cleavage, 20 min. Potency, µM (titrated, usually from 57.5 µM), inactives show at the highest dose activity change, negative = active. 340,000 compounds, 1.9% hits. AID 651965, 2013; active = well fitted falling curve with a large enough effect; inconclusive = small, poorly fitted or top-dose-only effect; inactive = no such curve, though single readings can be large or run the other way; also: potency is read from the fitted curve at half-maximal effect; the source files actives as falling curves though it sought activators and does not explain the sign; nearly all actives have a fitted effect of over 65% in size; many hits overshoot -100%
Target sequence (P80244 whole entry, looked up): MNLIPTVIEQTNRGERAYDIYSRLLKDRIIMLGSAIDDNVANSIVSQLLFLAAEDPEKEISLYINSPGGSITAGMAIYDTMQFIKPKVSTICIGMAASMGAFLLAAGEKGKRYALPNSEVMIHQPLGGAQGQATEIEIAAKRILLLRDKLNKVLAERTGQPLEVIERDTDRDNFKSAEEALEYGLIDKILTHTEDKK
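ClpP 10 microg/mL final, pH 8 Tris/KCl buffer with BSA, glycerol, Tween-20; compound pinned in; FRET-FV substrate; RT 20 min; Ex320/Em430; ΔFRET vs ADEP 5.8 microM, DMSO, no enzyme.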
gsp ag: gsp mutant agonism; AID 624287; 340,000 compounds, 0.13% hits; gsp mutant cells, cAMP HTRF, 30 min; control for the full effect not named in the record; Potency, µM (titrated, usually from 76.9 µM), without a hit: at the top dose activation (cAMP increase), actives largely listed as activators; active = well fitted activation curve with a large enough effect; inconclusive = small, poorly fitted or top-dose-only effect, or another doubt; inactive = no such curve, though single readings can be large or run the other way; cell line not stated here;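 also: phosphodiesterase inhibitor Ro 20-1724 added with compounds to block cAMP breakdown; potency is read from the fitted curve at half-maximal effect; nearly all actives have a fitted effect of over 60% in size; about a fifth of the inactives were tested at one dose only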
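Cells stably selected in G418 were plated at 2000/well, grown 16-24 hr, then given compounds in DMSO with the PDE inhibitor […] (300 uM solution added) for 30 min at 37C; cAMP was read by HTRF.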
* = called active by the depositor; u = inconclusive; x = not tested or not shown; & = joins results of further samples; [ ] = dose if it differs, or a comment.

SMILES	gsp antagonist	TRPML1 inh	Menin MLL FP FL	TRPML1 agonist	ClpP mod	gsp ag
N#C/C(=N\Nc1ccc([N+](=O)[O-])cc1)C(N)=S	u	-3	37[activator]	-0.5	0.6%	17%[15.4 µM]
Cc1ccc2c(c1)nnn2C1CCN(S(=O)(=O)c2ccc(C(=O)O)cc2)CC1	6%	0	-2.0	-1.5	x	-4%[15.4 µM]
Cn1nc(C(=O)NNc2c(F)c(F)cc(F)c2F)c2ccccc2c1=O	-15%	-18	-5.4	1.3	x	16%[15.4 µM]
NS(=O)(=O)c1ccc2nc(NC(=O)c3ccc(Br)o3)sc2c1	-8%	-4	8.6	-0.3	-7.2%	16%
Cc1cc(NC(=O)CSc2nc3ccsc3c(=O)n2Cc2ccccn2)n[nH]1	7%	-1	3.5	0.5	-1.5%	19%
O=C(c1ccccc1)C1CCN(C(=O)C2CCC(=O)N(Cc3ccccc3F)C2)CC1 (configuration not stated)	-3%	8	1.3	-0.3	-10%	-4%[15.4 µM]
Cc1ccc(NC2CCCN(C(=O)c3ccc(-n4ccnc4)cc3)C2)cc1C (configuration not stated)	-18%	-3	x	-0.1	-1.9%	12%[15.4 µM]
O=C(NCCC1=CCCCC1)c1cnccn1	4%	10	-0.4	2.3	-4.9%	-16%
O=C1CC(=O)N2N=C(c3ccc([N+](=O)[O-])cc3)SC2=N1	-6%	-10	6.0	-0.2	3.3%	u
CC(/C=N/NC(=S)Nc1cccc(S(=O)(=O)N(C)C)c1)c1ccccc1 (configuration not stated)	-17%	2	3.3	-1.2	1.3%	1%

Brought forward from above: 5 compounds, then new ones.
SMILES	gsp antagonist	TRPML1 inh	Menin MLL FP FL	TRPML1 agonist	ClpP mod	gsp ag
O=C(c1ccccc1)C1CCN(C(=O)C2CCC(=O)N(Cc3ccccc3F)C2)CC1 (configuration not stated)	-3%	8	1.3	-0.3	-10%	-4%[15.4 µM]
Cc1ccc(NC2CCCN(C(=O)c3ccc(-n4ccnc4)cc3)C2)cc1C (configuration not stated)	-18%	-3	x	-0.1	-1.9%	12%[15.4 µM]
O=C(NCCC1=CCCCC1)c1cnccn1	4%	10	-0.4	2.3	-4.9%	-16%
O=C1CC(=O)N2N=C(c3ccc([N+](=O)[O-])cc3)SC2=N1	-6%	-10	6.0	-0.2	3.3%	u
CC(/C=N/NC(=S)Nc1cccc(S(=O)(=O)N(C)C)c1)c1ccccc1 (configuration not stated)	-17%	2	3.3	-1.2	1.3%	1%
CC(C)[C@H](NC(=O)C1CC(=O)N(c2ccc3c(c2)OCCO3)C1)C(=O)NC1CCCC1 (some centres not stated)	7%	3	2.6	1.5	-0.7%	1%
CCCC1=[N+](CC)CCn2c(C)ccc21	2%	-3	1.6	0.3	-9.9%	-68%[inhibitor]
COc1ccc(Cl)cc1NC(=O)CN(C)CC(=O)N(CC(C)C)c1c(N)n(CC(C)C)c(=O)[nH]c1=O	5%	-3	x	-1.1	-2.5%	-13%
CCOC(=O)c1ccc(NC(=S)NCCc2ccccc2F)cc1	-4%	15	-2.6	0.3	x	-4%[15.4 µM]
CCCCNC(=O)C1(C)CCN1C(=O)c1cccc2c1OCCO2 (configuration not stated)	x	46	x	0.9	-9.6%	x
O=C(c1ccco1)N1CCN(Cc2ccc(Cl)cc2)CC1	-11%	0	-1.7	1.1	2.0%	6%
COc1ccc2cc(C[C@@H]3CC[C@@H](CNC(N)=O)O3)ccc2c1	6%	4	x	-0.5	-4.5%	x
CCCn1c(=O)c(C(=O)NNS(=O)(=O)c2ccc(C)cc2)c(O)c2ccccc21	5%	-3	u	1.5	1.0%	-9%[15.4 µM]
CCn1c(NCc2ccc(N(C)C)cc2)nc2ccccc21	3%	-8	-0.4	-0.5	-9.1%	-6%
CC(=O)N/C(=C/c1ccc2c(c1)OCO2)C(=O)NC(Cc1ccccc1)C(=O)O (configuration not stated)	6%	12	x	-0.4	32µM*	5%[15.4 µM]
COc1cccc(-n2c(=O)n(Cc3ccccc3)c(=O)c3[nH]cnc32)c1	5%	-8	-3.6	0.3	1.0%	1%[15.4 µM]
CC(C)NC(=O)c1onc(CSc2ccc(F)c(F)c2)c1C(=O)NC(C)C	-9%	25	x	1.1	0.4%	u
CC(OC(=O)Cn1[nH]c(=O)c2ccccc2c1=O)C(=O)Nc1ccc(F)cc1 (configuration not stated)	7%	8	x	-0.9	-1.1%	3%
O=C(CSc1nccn1Cc1ccc(F)cc1)Nc1ccc2c(c1)OCO2	x	-21	x	3.1	-2.1%	x
CC1CCN(S(=O)(=O)c2ccc3[nH]c(=O)ccc3c2)CC1	5%	-6	-4.5	0.0	-3.9%	-11%
CC1CC(=O)Nc2ccccc2N1C(=O)Cn1cnc2ccc(Br)cc2c1=O (configuration not stated)	0%	39	x	0.2	-2.9%	-23%
CCN(C(=S)Nc1cccnc1)c1cccc2ccccc12	-3%	16	3.3	1.0	3.5%	0%
Cc1cc(NC(=O)c2cccc(S(=O)(=O)N3CC(c4ccccc4)CC3=O)c2)no1 (configuration not stated)	-10%	34	-1.9	2.5	-0.6%	-13%
CCCC(O)(CCN1CCCCC1)c1ccc(OCC)cc1 (configuration not stated)	6%	26	0.6	0.4	-1.7%	-1%
COc1ccc(C(=O)N2CCC3(CC2)NCCc2[nH]cnc23)cc1OC	9%	-3	-5.6	3.1	-0.8%	21%
Cc1c(C)c2c(C)nn(-c3ccccc3)c2[nH]c1=O	5%	-8	-0.5	-0.5	3.1%	3%
COc1ccc(CCC(=O)N2CCN(S(=O)(=O)c3ccc(C)cc3)CC2)cc1	-5%	3	x	-0.4	0.1%	-4%
O=C(O)c1ccc2c(c1)C(=O)N(c1cc(C(=O)O)ccc1Br)C2=O	0%	5	1.2	-0.8	-1.7%	0%
COc1cc(C(=O)N2CCN(Cc3ccc4c(c3)OCO4)CC2)cc(OC)c1OC	8%	-9	-4.9	-0.2	1.1%	6%[15.4 µM]
CCN1CCN(C(=O)c2ccc3c(=O)n(C4CCCC4)c(=S)[nH]c3c2)CC1	2%	11	4.9	-0.1	-3.6%	-26%
CCOC(=O)C1=C(C)Nc2ncnn2C1c1ccc(N(C)C)cc1 (configuration not stated)	-9%&-5%	1&6	1.8	-0.6&0.0	-0.4%	38%&-2%
CCOC(=O)C1=NOC2C(=O)N(c3ccc(Cl)cc3Cl)C(=O)C12 (configuration not stated)	8%	25	0.7	-0.1	x	-13%[15.4 µM]
COc1ccc2c(c1)C(=O)OC2CC(=O)O (configuration not stated)	2%	-19	2.4	0.0	-1.3%	u
CC(C)C(NS(=O)(=O)c1ccc2c(c1)oc(=O)n2C)C(=O)N1CCN(C2CCCCC2)CC1 (configuration not stated)	3%	-1	-0.6	0.0	-1.5%	-22%
CCCNC(=O)CCn1c(=S)oc2ccccc21	12%	x	1.0	x	-1.1%	-24%
N#Cc1nc(COc2ccccc2F)oc1NCc1ccc(F)cc1	4%	21	1.2	-0.6	0.8%	-5%
COC(CNC(=O)C1CCN(S(=O)(=O)c2cccc3nsnc23)CC1)OC	4%	1	x	0.0	0.4%	2%
O=C(CSc1nnc(NC(=O)c2ccc(F)cc2)s1)NC1CCCC1	-5%	11	0.4	-0.6	x	19%
CCCCCSc1nc2c(c(=O)[nH]c(=O)n2C)n1C	8%	-6	-0.8	0.2	-1.1%	-13%
CCc1ccccc1NC(=S)NNC(=O)c1ccccc1Cl	8%	25	1.9	0.8	-0.1%	-29%
O=C(CSc1nc2cc([N+](=O)[O-])ccc2n1-c1ccccc1)NCc1ccc2c(c1)OCO2	u	43	1.8	0.7	0.8%	-13%
CC(C)Cn1cnc2c(N)nc3ccccc3c21	-1%	7	-0.7&-2.8	7.3	-3.4%	x
Cc1ccc(OCC(=O)N/N=C/C=C/c2ccco2)cc1C	-14%	-17	0.4	-1.3	1.2%	17%
COC(=O)C1=C(C(=O)OC)[C@@H]2N(Cc3ccccc3)c3ccccc3[C@@]23C[C@@H](C(=O)OC)N(C(=O)C2CCC2)C3=N1	-7%	-3	-0.4[11.7 µM]	0.2	0.9%	x
COc1ccccc1CNC(=O)C(CCSC)NC(=O)c1cccc(S(=O)(=O)N2CCOCC2)c1 (configuration not stated)	-7%	-1	x	-0.1	-2.3%	1%[15.4 µM]
CN1CCN(CCCCOc2ccccc2-c2ccccc2)CC1	11%	4	-4.8	0.5	x	-3%
CCc1ccccc1NC(=O)CSc1nc2c(oc3ccccc32)c(=O)n1-c1ccccc1	x	10	x	0.4	-9.3%	x
Cc1ccccc1N1C(=O)c2ccccc2N2C(=O)c3ccccc3C12 (configuration not stated)	-18%	-3	0.3	1.5	-3.6%	2%
O=C(CSc1ncccc1C(=O)O)Nc1ccc2c(c1)OCCO2	14%	-11	-5.5	1.9	-1.9%	24%
C=CCOc1ccccc1/C=C/C(=O)O	3%	-4	-0.5	-0.1	-1.6%	28%
O=c1[nH]c(=S)[nH]cc1S(=O)(=O)c1cccc(Cl)c1	8%	-14	-1.0	-1.1	x	u
CC(C)C(OC(=O)CN1C(=O)COc2ccccc21)C(=O)NC1CCCC1 (configuration not stated)	0%	-6	-7.4	-0.2	-2.7%	-8%
COCC(=O)Nc1cc(OC)c(Cl)cc1OC	-1%	26	4.2	-0.7	1.7%	-60%[inhibitor]
CCC(=O)NC(NC(=S)Nc1cccc2cccnc12)C(Cl)(Cl)Cl (configuration not stated)	-15%	-5	7.7	-0.1	10%	-4%
O=C(CSc1nc2[nH]c(=O)cc(O)c2s1)Nc1ccc(Cl)c(C(F)(F)F)c1	8%	6	x	0.4	-0.3%	u
(continued)
SMILES	gsp antagonist	TRPML1 inh	Menin MLL FP FL	TRPML1 agonist	ClpP mod	gsp ag
CC1=C(c2ccc(Cl)cc2)[N+](=O)C(C)(C)N1[O-]	15%	0	2.8	-0.2	1.2%	-59%[inhibitor]
O=C(CSc1nnc(NC(=O)C2CC(=O)N(c3ccccc3)C2)s1)NCc1ccco1 (configuration not stated)	7%	4	-2.4	0.3	-2.1%	u
Cc1cc(Cl)c(OCCCSc2nc(C)cc(=O)[nH]2)c(Br)c1	u	10	9.9	3.0	-1.3%	u
CCc1ccc(NC(=O)CN(c2ccc(OC)cc2)S(=O)(=O)c2c(C)[nH]c(=O)[nH]c2=O)cc1	-3%	-10&0	5.2	0.0&0.2	-1.8%&0.8%	-1%
CN(CC(=O)Nc1ccc(Cl)c(C(F)(F)F)c1)C(=O)CNC(=O)C1CCCCC1	-4%	17	x	4.8	-1.2%	-33%[inhibitor]
COc1ccc(C2C(=O)N(C3CCC(C)CC3)CC(=O)N2C2CCCCC2)cc1OC (configuration not stated)	x	-7	x	1.9	0.5%	x
CCCCNc1c(-c2cccc(-c3ccc(OC)cc3)c2)nc2ccc(C)cn12	u	0	x	1.4	3.6%	x
